Assay outcomes as filed in PubChem BioAssay.
LANA-nucl inh: inhibitors of KSHV LANA-nucleosome binding, primary screen, biochemical, fluorescence polarization, FITC-LANA1-23, chicken nucleosomes | FITC-LANA1-23 / chicken nucleosome fluorescence polarization; active compounds read low | z-score (test concentration not listed) | 0.3% of 51,000 active | AID 720717, 2013;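 active = both repeat wells score below -2 in polarization z-score versus plate sample wells, excluding overly bright wells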;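 also: 100 nL library stock added to about 30 µL; numbers are from one replicate; some results filed as inactive read as strong as hits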
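System – purified chicken nucleosomes with FITC-labelled LANA N-terminal peptide (1-23) · Amount – 240 nM purified chicken nucleosomes (480 nM peptide binding sites), final · Also added – 50 nM FITC-LANA1-23 probe · Medium – TEN-BT buffer, pH 7.5 · Incubation – compound with peptide–nucleosome mix 10–45 min at room temperature · Detection – fluorescence polarization, ex 480 nm, em 535 nm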
BasE inh: BasE siderophore enzyme inhibitors, primary screen, biochemical, Acinetobacter baumannii ATCC 17978, fluorescence polarization; purified BasE, fluorescence polarization binding displacement; inhibition, % (concentration not given with the values); 0.1% of 84,000 active; AID 485350, 2010;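 active = both replicates above 25% with normal brightness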;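 also: 0% = negative plate control signal and 100% = positive plate control signal; stock transfer was 100 nL into about 30 µL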
* marks the source's active call; other numbers are inactive results; . = no result given; & = joins results of further samples.

SMILES	LANA-nucl inh	BasE inh
CC(=O)N1CN(C2CCCC2)Cc2c1sc1c2CCCC1	.	1.5
O=C(NC1CCCC1)c1ncoc1-c1ccc2ccccc2c1	-1.23	1.2
N#Cc1ccc(COC(=O)c2cnc3sccn3c2=O)cc1	.	-3.3
CCCC(C(=O)OCCN(CC)CC)(c1ccccc1)c1ccccc1	-0.657&-0.91&-0.58	-1.7&0.3
COc1ccc(-n2c(SCC(=O)N3CCCc4ccccc43)nc3c(c2=O)SCC3)cc1OC	0.288	1.5
C/C(Cc1ncn(-c2cc(C)on2)n1)=N\O	.	2.0
CCOC(=O)C1CCCN(Cc2cn3c(-c4cccc(Br)c4)nnc3s2)C1 (stereo not given)	-1	1.7
COc1ccccc1N(CN1CCCC1=O)C(=O)COc1ccc(Cl)cc1Cl	-2.27	-0.7
CNc1ccc(C(O)(C(F)(F)F)C(F)(F)F)cc1	-0.037	0.9
CCCCn1c(=O)[nH]c2nc3cc(N=Cc4c(O)n(C)c(=O)n(C)c4=O)ccc3nc2c1=O	-0.494	2.5
O=C(NCCCO)Nc1c[nH]c2ccccc2c1=O	-0.255	-1.3
COc1cc(C(=O)O)cc(OC)c1OCc1cc(C(=O)O)oc1C	1.16	1.2
Cc1ccc(C(=O)Nc2cccc(C(=O)O)c2)cc1	-0.157	1.4
CC(=O)N1N=C(c2ccncc2)OC1c1cn(-c2ccccc2)nc1-c1cccs1 (stereo not given)	0.291	-0.7
COc1cccc(C(=O)Nc2cccnc2)c1	1.68	1.5
O=C(CCN1C(=O)c2ccccc2S1(=O)=O)NCc1ccccc1	0.325	-0.2
COc1ccc(Cl)cc1C(=O)NC1CCCC1	.	-0.8
COc1ccc(-n2nc(C(=O)Nc3ccc4c(c3)OCCO4)c3c4ccccc4n(C)c3c2=O)cc1	-0.641	0.2
Cc1ccc(C(=O)N2CCC(C(=O)O)CC2)cc1	0.474	-0.8
Oc1ccc2nnc3c(Br)cnn3c2c1	-11.5	28.7

Reformatted as a markdown table: entries from further up.
| smiles | LANA-nucl inh | BasE inh |
| --- | --- | --- |
| O=C(NC1CCCC1)c1ncoc1-c1ccc2ccccc2c1 | -1.23 | 1.2 |
| N#Cc1ccc(COC(=O)c2cnc3sccn3c2=O)cc1 | . | -3.3 |
| CCCC(C(=O)OCCN(CC)CC)(c1ccccc1)c1ccccc1 | -0.657&-0.91&-0.58 | -1.7&0.3 |
| COc1ccc(-n2c(SCC(=O)N3CCCc4ccccc43)nc3c(c2=O)SCC3)cc1OC | 0.288 | 1.5 |

The results go on:
SMILES	LANA-nucl inh	BasE inh
COC(=O)c1cc(S(=O)(=O)N(Cc2ccc(OC)cc2)Cc2cccn2C)oc1C	-0.611	1.0
CCN1C/C(=C/c2cc(C)n(C3CC3)c2C)C(=O)/C(=C\c2cc(C)n(C3CC3)c2C)C1	.	1.8
Nc1nc(-c2ccccc2)c(N=Nc2cccnc2)s1	.	-1.7
C=CCn1c(O)c(CN2CCOCC2)c(C)c(C#N)c1=O	0.751	1.4
CCOC(=O)c1c(-n2cnnn2)sc(C)c1C	0.141	0.9
CCCCN(Cc1ccccc1)c1ncnc2nc[nH]c12	3.06	-2.2
C=CCOc1ccc2c(C)cc(=O)oc2c1	0.392	-3.3
NC(=O)C1CCCN(C(=O)Nc2c[nH]c3ccccc3c2=O)C1 (stereo not given)	-0.272	1.8
Cc1ccc(/C=C2/NC(=O)N(Cc3ccc(Br)cc3)C2=O)o1	-1.11	-4.3
COc1ccc(C(=O)NN2CC(=O)N(C(C)C)C2=O)c2ccccc12	-0.381	0.1
Cn1c(C(C#N)c2cnn(-c3ccccc3)c(=O)c2Br)nc2ccccc21 (stereo not given)	.	-1.5
c1ccc(N2CN3CN2CN3c2ccccc2)cc1	.	0.7
COc1ccc(N2CCN(C3CC(=O)N(CCc4ccccc4)C3=O)CC2)cc1 (stereo not given)	-0.792	-0.9
CCN(CC)CC(=O)Nc1cc(C)nn1-c1ccccc1	1.41	.
O=C1C(c2ccnc3ccccc23)=C(O)c2ccccc21	-4.18*	2.1
CC1CCN(C(=O)COc2ccc(F)cc2)CC1	-1.09	0.6
CCn1c2ccccc2c2cc(NS(C)(=O)=O)ccc21	0.196	0.0
CCN(CC)C(=O)C12CC3CCC(CC(C3)C1)C2	.	0.2
O=C(CCN1C(=O)C2CC=CCC2C1=O)OCn1nnc2ccccc2c1=O (stereo not given)	.	0.5
Cc1ccc(Nc2cc(C(=O)NCc3ccco3)c3ccccc3n2)c(C)c1	0.621	1.3

The closing three records of the part before open the next one.
SMILES	LANA-nucl inh	BasE inh
CCN(CC)C(=O)C12CC3CCC(CC(C3)C1)C2	.	0.2
O=C(CCN1C(=O)C2CC=CCC2C1=O)OCn1nnc2ccccc2c1=O (stereo not given)	.	0.5
Cc1ccc(Nc2cc(C(=O)NCc3ccco3)c3ccccc3n2)c(C)c1	0.621	1.3
O=C(NC1CCCC1)C(c1ccncc1)N(Cc1ccco1)C(=O)Cn1nnc(-c2ccc(Cl)cc2)n1 (stereo not given)	-0.358	1.1
O=P(/C(=N/O)Sc1ccccc1)(N1CCOCC1)N1CCOCC1	0.347	-0.7
O=C(NC1CCCCC1)C(c1cccs1)N(Cc1ccco1)C(=O)C1COc2ccccc2O1 (stereo not given)	-1.46	-0.5
CC(C)N1C(=O)S/C(=C/c2ccc3c(c2)OCCO3)C1=O	-0.0315	3.4
COc1ccc(Nc2nc(NC(=O)Nc3ccc(Cl)cc3)n[nH]2)cc1	-0.936	.
CCOC(=O)/C=C1\SCC(=O)N1C(C)C(=O)Nc1ccc2c(c1)OCCO2 (stereo not given)	.	1.6
CN(C)c1ccc(/C=C/CN2CCCCCC2)cc1	0.0985	-0.5
CCOC(=O)NC(=S)Nc1ccc(NC(=O)c2cc(Cl)ccc2O)c(Cl)c1	.	0.9
CCn1c(=O)c(CCc2ccccc2)nc2cc(S(=O)(=O)N(C)C)ccc21	.	-0.1
CN(C)S(=O)(=O)NC1CC(=O)N(c2ccc(F)cc2)C1 (stereo not given)	-0.68	2.5
CC1(C)C(=O)Nc2ccccc2N1C(=O)COc1ncnc2ccccc12	.	1.2
COC(=O)C1=C(C)NC(C)=C(C(=O)OC(C)C)C1c1cccc2nonc12 (stereo not given)	-0.596&0.384	-3.4
CCN1CCN(C(=O)c2cn(CC)c(=O)c3cc(OC)c(OC)cc23)CC1	-0.374	2.3
CCOC(=O)C(C(C)C)C(N)Cc1ccc(F)cc1 (stereo not given)	-0.647	-2.5
CC1CCC(C(C)C)C(OC(=O)CN2C(=O)c3ccccc3C2=O)C1 (stereo not given)	.	-1.1
Cc1cc2ncn(S(=O)(=O)c3ccc(S(N)(=O)=O)cc3)c2cc1C	1.09	-1.9
CC(C)(C)c1ccc(Cn2c(=N)n(CCO)c3ccccc32)cc1	.	-0.6
Cc1cccc2c1NC1(CCCC1)CC2C (stereo not given)	-0.0545	1.5
OC(CSc1nc2ccccc2[nH]1)c1ccccc1 (stereo not given)	-0.151	-0.4
CN1C(C(=O)N2CCCCC2)=CC(c2cccs2)=NS1(=O)=O	-0.35	0.1

Of the compounds above, these have a cyano group.
SMILES	LANA-nucl inh	BasE inh
N#Cc1ccc(COC(=O)c2cnc3sccn3c2=O)cc1	.	-3.3
C=CCn1c(O)c(CN2CCOCC2)c(C)c(C#N)c1=O	0.751	1.4
Cn1c(C(C#N)c2cnn(-c3ccccc3)c(=O)c2Br)nc2ccccc21 (stereo not given)	.	-1.5

Other results follow.
SMILES	LANA-nucl inh	BasE inh
O=C(COC(=O)c1ccc(Br)o1)c1ccc(Cl)c(Cl)c1	-0.392	5.8
CCN(CC)C(=O)Oc1ccc(Br)cc1C(=O)Nc1cc(Cl)cc(Cl)c1	2.1	.
CCN(CC)c1cc(=O)n2c(n1)SCCC2	-0.103	-1.8
COC(=O)Nc1nc2ccc(Sc3ccccc3)cc2[nH]1	-0.065&0.56&-1.42&-0.198	-1.7&3.3
C=CCn1c(SCC(N)=O)nnc1-c1ccccc1O	0.28	-0.6
Cc1nc2c(C(=O)NCC3CCCO3)cnn2c(C)c1Cc1ccc(F)cc1 (stereo not given)	0.303	0.8
CCOc1ccc(C(=O)N[C@H](C(=O)NC2CCCCC2)C(C)C)cc1	.	-0.1
Cc1cc(N)c(O)cc1C	0.803	-5.1
CNC(=O)CSc1nc2ccccc2n1-c1ccccc1	.	0.3
COc1cccc(C(=O)N2c3ccccc3C(Nc3ccccc3)CC2C)c1 (stereo not given)	.	-1.5
CCC[C@@H]1C[C@@H](C(=O)N[C@@H]([C@H]2O[C@H](SC)[C@H](O)[C@@H](O)[C@H]2O)[C@H](C)Cl)N(C)C1	-0.383&1.08	.
Cc1ccc(S(=O)(=O)NCC(O)c2ccccc2)cc1 (stereo not given)	-0.544	0.7
Cc1csc(=O)n1CC(=O)OCC(=O)NCc1cccs1	.	2.3
O=C1CC(c2ccco2)CC2=C1C(c1ccco1)N(C(=O)c1ccccc1)c1ccccc1N2 (stereo not given)	-0.0885	-2.9
O=C(CCc1nnc2n(Cc3ccccc3)c(=O)c3ccccc3n12)N1CCN(C(=O)c2ccco2)CC1	-0.836	-0.3
O=C1C2C3C=CC(C3)C2C(=O)N1Nc1ccccc1 (stereo not given)	.	0.0
O=C(O)CCC(=O)NCc1ccccn1	-0.451	-0.4
O=C(Nc1ccccc1)OCN1C(=O)c2ccccc2C1=O	-0.828	-0.4
COc1ccc(OC)c(/C(C)=N/N=C(N)N)c1	.	1.6
CCN(Cc1ccccc1)C(c1ccccn1)c1nnnn1C(C)(C)CC (stereo not given)	0.0475	5.4
CN(C(=O)COC(=O)c1ccc(S(=O)(=O)N(C)C)cc1)c1ccccc1	.	-2.2
Cc1ccccc1NC(=O)Cc1nc(Cn2cc(S(=O)(=O)N3CCCC3)ccc2=O)cs1	.	-4.8
CCN(CC)S(=O)(=O)c1ccc(N2CCc3cc(OC)c(OC)cc3C2)nc1	.	1.0
CCC1C(=O)NCCN1C(=O)c1ccc(Br)o1 (stereo not given)	-0.198	-1.0
Oc1oc(C=Nc2ccc(OC(F)(F)F)cc2)c2ccccc12	0.343	.
O=C(Nc1ccc(CN2CCCCC2)cc1)c1c(F)c(F)c(F)c(F)c1F	0.313	-4.6
Cc1nc(C)c(I)c(Oc2ccc(C#N)cc2)n1	-1.04	.
O=C(O)CCC(=O)Nc1nncs1	-1.17	2.0
O=C(O)CCc1nc2c(cnn2-c2ccccc2)c(=O)[nH]1	.	0.8
Cc1ccc(C2C3=C(CC(C)(C)CC3=O)N(CCN3CCOCC3)C3=C2C(=O)CC(C)(C)C3)cc1	-0.118	3.2
N#Cc1ccc(-c2csc(-c3ccc(C(F)(F)F)cc3)n2)cc1	.	2.0
COc1cccc(C(=O)Nc2sc3c(c2C(N)=O)CCN(C(C)=O)C3)c1OC	2.34	-5.7
CC(=O)NC1(C(F)(F)F)C(=O)Nc2c1c(=O)n(C)c(=O)n2C (stereo not given)	-1.29	-0.7
N#Cc1ccccc1CSc1nc2ccccc2n1-c1ccccc1	.	-9.9
O=C(O)CSC1CCC(=O)N1 (stereo not given)	-0.305	.
CN1CCN(C(=O)c2ccc3c(c2)N(Cc2ccccc2)CCS3)CC1	1.5	-4.2
C/C(Nc1nc(-c2cc(C)n(Cc3ccccc3Cl)c2C)cs1)=C(/C#N)C(N)=O	.	2.5
CC(C)c1ccc(-n2c(-c3ccco3)nc3c(cnn3-c3ccc(Cl)cc3)c2=O)cc1	-0.878	0.8
FC(F)(F)c1cc(Oc2ncnc3c2oc2ccccc23)cc(C(F)(F)F)c1	.	1.8
Cc1ccc2c(c1)CCCN2C(=O)c1csc(C)c1	0.672	0.5
Oc1ccccc1Oc1ccccc1	-0.441	.
Cc1ccc(OCCNC(=O)c2ccc(C)o2)cc1	.	-0.3
COc1ccc(N/C(N)=N/c2nc(C)cc(=O)[nH]2)cc1	-0.161	1.6
CC(C)(C)c1ccc(OCCCC(=O)N2CCOCC2)cc1	-1.53	2.7
Cc1ccccc1Nc1nc(N)nc(COc2ccc(F)cc2C(=O)c2cc(C#N)c(=O)n(C(C)C)c2)n1	.	0.9
O=C(Nc1ccccc1N1CCCC1)c1ccccc1	0.845	3.3
CCOC(=O)C1=C(CN2CCn3cccc3C2C)NC(=O)NC1c1ccc(Cl)cc1 (stereo not given)	-0.309	-0.4
C(=N/n1cnc2ccccc21)/c1ccccc1	0.8	2.0
COC(=O)Cn1cc(/C=C(/C#N)C(=O)NCc2ccccc2)c2ccccc21	1.05	-0.3
CC(=O)OC(C)C[N+](C)(C)C (stereo not given)	-0.416&-0.406&0.494	-3.4&-0.6
Nc1ccc(-c2nnn(CC(=O)N3CCCC3)n2)cc1	-0.0865	-0.9
O=S(=O)(c1ccccc1)n1ccc(-c2ccc(C#Cc3ccccc3)cc2)n1	.	-1.7
O=C(COn1nnc2ccccc21)N1CCC(Cc2ccccc2)CC1	.	4.6
CC(C)c1cc(NS(=O)(=O)c2ccccc2)c(O)c(C(C)C)c1	.	3.6
Cc1cccc(N2CCN(Cc3ccco3)CC2)c1C	-0.526	-0.2
COC(=O)c1cc2c(=O)n3ccccc3nc2n(C(C)C)c1=N	.	-5.2
CCC(=O)N(c1nnc(SCC(=O)NC(=O)c2ccccc2OC)s1)C1CC1	.	-0.2
O=C(/C=C/c1ccco1)Nc1ccc(CN2CCOCC2)cc1	.	0.0

The list is partial; rates above refer to the full screens.
